# Bioassay records deposited in PubChem by National Center for Advancing Translational Sciences (NCATS).
# hNpr1 antagonist: blocks ANP-stimulated signaling of human Npr1 receptor. AID 1347048. P16066. 76,000 compounds, 1.6% hits. HEK293 hNpr1 GloSensor cGMP, ANP-stimulated luminescence. Potency, µM (highest dose often 46.3 µM), for the others: top-dose activity change, negative = inhibition, usual class: inhibitors; active = well fitted inhibition curve with a large enough effect; inconclusive = small, poorly fitted or top-dose-only effect; inactive = no such curve, though single readings can be large or run the other way;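 also: nearly all actives have a fitted effect of over 60% in size; nearly all hits also lower the signal before the agonist is added; a reference antagonist and vehicle were the controls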
# Target sequence (P16066 whole entry, looked up): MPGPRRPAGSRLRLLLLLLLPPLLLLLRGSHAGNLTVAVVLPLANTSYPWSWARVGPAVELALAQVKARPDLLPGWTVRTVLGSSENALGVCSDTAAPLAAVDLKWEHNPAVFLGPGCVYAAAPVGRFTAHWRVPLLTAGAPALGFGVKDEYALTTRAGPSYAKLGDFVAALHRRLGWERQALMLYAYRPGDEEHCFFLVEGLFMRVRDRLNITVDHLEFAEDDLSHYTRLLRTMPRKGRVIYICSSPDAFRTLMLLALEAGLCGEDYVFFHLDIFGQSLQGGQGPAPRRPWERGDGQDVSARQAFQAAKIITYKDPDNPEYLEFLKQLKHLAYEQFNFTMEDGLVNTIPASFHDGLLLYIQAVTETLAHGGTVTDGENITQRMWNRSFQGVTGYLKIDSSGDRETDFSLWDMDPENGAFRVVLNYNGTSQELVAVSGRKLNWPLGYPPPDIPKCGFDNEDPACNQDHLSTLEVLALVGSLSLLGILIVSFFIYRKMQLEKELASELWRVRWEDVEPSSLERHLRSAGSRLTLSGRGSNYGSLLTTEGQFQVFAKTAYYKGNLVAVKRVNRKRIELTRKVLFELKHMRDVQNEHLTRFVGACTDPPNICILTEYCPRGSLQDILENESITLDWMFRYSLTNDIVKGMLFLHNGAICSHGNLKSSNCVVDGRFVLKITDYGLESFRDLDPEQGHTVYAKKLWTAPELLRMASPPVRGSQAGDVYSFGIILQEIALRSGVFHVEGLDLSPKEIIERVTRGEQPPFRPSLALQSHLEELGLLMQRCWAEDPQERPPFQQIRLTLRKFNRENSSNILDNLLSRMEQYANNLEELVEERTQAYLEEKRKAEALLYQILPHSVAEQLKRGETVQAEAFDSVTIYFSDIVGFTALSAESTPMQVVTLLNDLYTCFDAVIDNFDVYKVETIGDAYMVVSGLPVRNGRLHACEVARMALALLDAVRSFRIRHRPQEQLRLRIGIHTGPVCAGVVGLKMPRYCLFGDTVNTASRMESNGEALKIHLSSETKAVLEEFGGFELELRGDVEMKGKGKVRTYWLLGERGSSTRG
#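 Compound pre-incubated 30 min at room temperature on GloSensor-loaded HEK293 cells stably carrying hNpr1 and the pGS-40F cGMP biosensor. Stimulation uses hNppA at 0.1 nM final; luminescence is taken at baseline and 20 min post-agonist.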
# An asterisk follows results filed as active; ? = inconclusive; [ ] = dose if it differs, or a comment. % is scaled to controls: 0 for no effect and ±100 for the full control effect; potency is read from the fitted curve at half-maximal effect. An excerpt. The share of hits here may be higher or lower than overall.
# Sample of the layout (five entries):
no.	Molecule	hNpr1 antagonist
1	O=C(Cc1ccccn1)NCC1COc2ncncc2C(=O)N1Cc1ccccc1 (stereo unspecified)	3%[70.6 µM]
2	COCCN1CCC(N2CCN(C(=O)c3ccc(C)cc3)CC2)C1=O (stereo unspecified)	14%
3	CC1=C[C@@H](CC#N)[C@H](C(C)C)C[C@H]1CC(=O)NCc1ccc(C(F)(F)F)cc1	-16%[70.6 µM]
4	O=C(NCCCN1CCCC1=O)C1Cn2cccc2C(=O)N1Cc1ccccc1 (stereo unspecified)	-2%
5	Cc1nc(-c2ccccc2OC2CN(C(=O)c3cnn(C)c3)C2)no1	-18%

# All compounds of this part (from the top)
no.	Molecule	hNpr1 antagonist
1	O=C(Cc1ccccn1)NCC1COc2ncncc2C(=O)N1Cc1ccccc1 (stereo unspecified)	3%[70.6 µM]
2	COCCN1CCC(N2CCN(C(=O)c3ccc(C)cc3)CC2)C1=O (stereo unspecified)	14%
3	CC1=C[C@@H](CC#N)[C@H](C(C)C)C[C@H]1CC(=O)NCc1ccc(C(F)(F)F)cc1	-16%[70.6 µM]
4	O=C(NCCCN1CCCC1=O)C1Cn2cccc2C(=O)N1Cc1ccccc1 (stereo unspecified)	-2%
5	Cc1nc(-c2ccccc2OC2CN(C(=O)c3cnn(C)c3)C2)no1	-18%
6	O=C(c1ccc(C(F)(F)F)cc1)N1CC[C@H]2COC(=O)N2c2cc(F)ccc2C1	-1%[70.6 µM]
7	CN1CCN(CCNC(=O)c2ccc(-c3ccc(N4CCCCCC4)nc3)cc2)CC1	-17%
8	Cc1nc(CN2CCN(C(=O)CC3COCCN3)CC2)cs1 (stereo unspecified)	1%

# Among those listed so far, two contain a CF3 group.
no.	Molecule	hNpr1 antagonist
3	CC1=C[C@@H](CC#N)[C@H](C(C)C)C[C@H]1CC(=O)NCc1ccc(C(F)(F)F)cc1	-16%[70.6 µM]
6	O=C(c1ccc(C(F)(F)F)cc1)N1CC[C@H]2COC(=O)N2c2cc(F)ccc2C1	-1%[70.6 µM]

# Following part
no.	Molecule	hNpr1 antagonist
9	COc1cc(Cl)ccc1C(=O)N1C[C@@H](C(N)=O)[C@H](c2nc(C)no2)C1	6%
10	Cn1nnc(-c2ccc(C(=O)N[C@H]3C[C@@H]4OCC[C@H]34)cc2)n1	4%
11	O=C(NCCc1noc(C2CC2)n1)Nc1ccc(C(F)(F)F)cc1	-4%
12	Cc1nc(CN2C(=O)OC3(CCN(C(=O)Cc4ccc(O)cc4)CC3)C2(C)c2ccccc2)cs1 (stereo unspecified)	2%
13	CCC(=O)N1CCc2sc(C(=O)NCc3cccs3)cc2C1	0%
14	Cc1nc(-c2cccc(Cl)c2)n(CC(=O)NC(C)CCc2ccccc2)c(=O)c1CCO (stereo unspecified)	-13%
15	Cc1ccccc1N1Cc2c(ncnc2N2CCN(Cc3ccccc3)CC2)N(C)CC1=O	-11%
16	COC[C@@H]1CN(c2ncccn2)C[C@H]1C(=O)Nc1ccncc1	-15%
17	CCN(C1CCOCC1)C1CN(C(=O)c2cccn2C)C1	5%
18	Cc1ccc(C)c(Cn2c(-c3ccc(Cl)cc3)nc(C)c(CCO)c2=O)c1	4%
19	CC(C)c1ccc(CNC(=O)CN2CC3CC(C2)[C@H]2CCCC(=O)N2C3)cc1 (stereo partly specified)	0%
20	COc1ncccc1-c1n[nH]c2c1CC(=O)N(Cc1ccccc1)C2	-8%[70.6 µM]
21	CNC(=O)C1CCN(C(=O)c2coc(COc3ccc4ccc(OC)cc4c3)n2)C1 (stereo unspecified)	-24%
22	COc1ccc(-c2cc(C(=O)N3CCCC3)ccn2)cc1F	0%
23	COc1ccc(N2CC(C(=O)NCc3ccc(C(F)(F)F)cc3)NC2=O)cc1 (stereo unspecified)	0%
24	Cc1ccc(NC(=O)C2Cn3cccc3C(=O)N2)cc1F (stereo unspecified)	-12%
25	COc1ccc(CNC(=O)C(C)[C@@H]2CCc3c(C)cc(OCCN4CCOCC4)c(C)c3C2)cc1 (stereo partly specified)	4%
26	COc1ccccc1Nc1cnc2ccc(N(C)Cc3cccnc3)nn12	25µM*
27	CC(C)c1nnc(C2CN(C(=O)COc3ccc(F)cc3)CC23CCOCC3)o1 (stereo unspecified)	-5%
28	COc1ccccc1NC(=O)Cn1ccn2nc3c(c2c1=O)CCCC3	-7%
29	NC1CCc2nn(CC(=O)N3CCN(c4ncccn4)CC3)c(=O)n2CC1 (stereo unspecified)	13%
30	O=C1c2c(-c3nc(-c4ccsc4)no3)nnn2CCN1CCOc1ccc(F)cc1	0%
31	CNc1cc(C(=O)N2CCN(CC(=O)O)CC(O)C2)ccn1 (stereo unspecified)	-10%
32	Cc1ccccc1NC(=O)C1CCCN(c2cn[nH]c(=O)c2)C1 (stereo unspecified)	-3%
33	Cc1noc(-c2ccc(OC(F)(F)F)cc2)c1C(=O)NCCc1ccc(F)cc1	-3%
34	O=C(Cn1nc2c(cc1=O)CCCC2)NCCc1c[nH]c2ccc(F)cc12	-1%
35	O=C(Cn1cccc1-c1nc(-c2ccccc2)no1)NCc1ccc(F)cc1F	-14%
36	C#CCNC(=O)CC[C@H]1CNC(=O)[C@@H]2[C@@H](CCN2Cc2csnn2)N1C	2%[70.6 µM]
37	Cn1ccc(NC(=O)C2(C)COCc3cnc(Nc4ccccc4)nc32)n1 (stereo unspecified)	0%[70.6 µM]
38	CCCN(CC1CCOC1)C(=O)c1ccc(F)cc1F (stereo unspecified)	-6%
39	C=CCNC(=O)[C@@H]1CCCN1[C@@H](C(=O)NC)C1CCCCC1	1%[70.6 µM]
40	COc1cccc([S+](=O)([O-])N2CCC3(CC2)C(=O)NN=C3c2cccnc2)c1	?
41	CCOC(=O)CNC(=O)c1cc2n(n1)CC(c1ccc(Br)cc1)OC2 (stereo unspecified)	-22%
42	CCc1ccc(S(=O)(=O)N2C[C@@H]3C(=O)N(C(CC)c4cccs4)C(=O)[C@@H]3C2)cc1 (stereo partly specified)	1%
43	COCCNC(=O)Cc1csc2nc(C)c(-c3cc(C)n(-c4ccccc4F)n3)c(=O)n12	1%
44	Cc1cc(Cl)ccc1NC(=O)N1C[C@H](c2nc(-c3cccnc3)no2)[C@@H](C)C1	-21%
45	COCCN1CCCC(c2[nH]ccc2C(=O)N2CCSCC2)C1 (stereo unspecified)	0%
46	CS(=O)(=O)CCN1C[C@@H](C(=O)O)[C@H](c2cccnc2)C1	14%
47	O=C1NCCCCCCN(C(=O)CCc2ccccc2)[C@H]2CCCC[C@@H]12	-10%
48	CCOC(=O)c1csc(NC(=O)Cn2nc3c(cc2=O)CCCC3)n1	11%
49	CC(C)CN1CCC[C@H]1c1nc(-c2ccnc(N3CCOCC3)c2)no1	-6%[70.6 µM]
50	CN(C)c1ccc(CNC2(Cc3cc(-c4ccccc4)on3)COC2)cc1	-7%[70.6 µM]
51	NC(=O)COC[C@@H]1CN(CC2CCCCC2)C[C@H]1c1ccncc1	-4%
52	Cc1cc(C(=O)N2CCC3(CC2)N=C(CC(C)C)NC3=O)c(C)o1	-2%
53	CC1=NOC2(CCN(Cc3ccccc3)CC2)C1	13%[70.6 µM]
54	CC(C)CCN1C(=O)CC[C@]2(C(=O)NCc3ccncc3)CCCC[C@@H]12	11%
55	O=C1CCN(S(=O)(=O)c2ccccc2)CCCN(C(=O)CCc2nc3ccccc3[nH]2)CCN1	0%
56	CCOc1c(CNC(=O)C2CCN(C(=O)C3CCCC3)CC2)cccc1OC	-3%
57	O=C(NCC1(COc2ccc(C(F)(F)F)cn2)C[C@@H](O)[C@@H](O)C1)c1ccc(F)cc1 (stereo partly specified)	2%
58	COCc1nnc(NC(=O)Cn2nc3c(cc2=O)CCCCC3)s1	-8%
59	COCCn1ncc(N2CCCC(CC(=O)NCc3ccccc3C)C2)cc1=O (stereo unspecified)	-21%
60	COc1cc(=O)n2c(c1C(=O)Nc1ccc3c(c1)OCCO3)CCCC2	-14%
61	O=C1CCCCC(C(=O)NCCc2ccccc2)N1 (stereo unspecified)	9%
62	COc1ccc(-c2nnc([C@H]3CCN(C(=O)c4ccc(OC)c(OC)c4)C3)o2)cc1	1%[70.6 µM]
63	Cn1ncc(N2CCC(C(=O)N3CCc4ccccc4C3)C2)cc1=O (stereo unspecified)	0%
64	Cc1noc(C)c1S(=O)(=O)NC1CCc2nn(CC3CC3)c(=O)n2CC1 (stereo unspecified)	2%

# Five compounds out of the list above, sorted by the value under hNpr1 antagonist, rising.
no.	Molecule	hNpr1 antagonist
60	COc1cc(=O)n2c(c1C(=O)Nc1ccc3c(c1)OCCO3)CCCC2	-14%
58	COCc1nnc(NC(=O)Cn2nc3c(cc2=O)CCCCC3)s1	-8%
63	Cn1ncc(N2CCC(C(=O)N3CCc4ccccc4C3)C2)cc1=O (stereo unspecified)	0%
57	O=C(NCC1(COc2ccc(C(F)(F)F)cn2)C[C@@H](O)[C@@H](O)C1)c1ccc(F)cc1 (stereo partly specified)	2%
61	O=C1CCCCC(C(=O)NCCc2ccccc2)N1 (stereo unspecified)	9%

# (further entries)
no.	Molecule	hNpr1 antagonist
65	Cc1ncc2c(c1CNC(=O)c1cc(C(C)C)n3ncnc3n1)CCNC2	2%
66	O=C(Cn1nc2c(cc1=O)CCCCC2)N1CCN(Cc2ccccc2)CC1	2%
67	Cc1cc(C)c(S(=O)(=O)N2CCC(C)(c3noc(C)n3)CC2)c(C)c1	-21%
68	CC(=O)N1CCC2(C1)N=C(c1ccncc1)C(=O)N2 (stereo unspecified)	-1%[70.6 µM]
69	COc1ccccc1-n1cc(C(=O)N2CC(C)(C)C(C)(O)C2)cn1 (stereo unspecified)	-2%
70	CCn1ccc(C(=O)N2C[C@@H](F)C[C@H]2C(=O)N2CCCCC2)n1	2%
71	NC(=O)[C@@H](Cc1ccccc1)NC(=O)C1=C[C@@H](NC(=O)c2ccc(F)c(Cl)c2)[C@@H](O)[C@H](O)C1	0%
72	CCOCCn1c(=O)[nH]c2cc(C(=O)NCc3noc(CC)n3)ccc21	-1%
73	O=C(NCc1ccc(N2CCCC2)cc1)C1CCCN(c2cnn(Cc3ccccc3)c(=O)c2)C1 (stereo unspecified)	?
74	Cc1n[nH]c(C)c1CCC(=O)NCC1CCN(c2cc(-c3ccc(F)cc3)[nH]n2)CC1	-20%
75	CCCN(CC1CC1)C(=O)[C@@H]1COCC(=O)N1Cc1ccccc1	0%
76	O=C(NCC1CN(C(=O)Cc2cccc(Cl)c2)CC12CN(c1ccccc1)C2)C1CC1 (stereo unspecified)	2%[70.6 µM]
77	O=C(Nc1ccccc1Cl)N1CCCC2(C1)Nc1cccnc1NC2=NC1CCCC1 (stereo unspecified)	-12%
78	Cc1ccc(CNC(=O)N2CC(N(C3CCOCC3)S(C)(=O)=O)C2)cc1	0%
79	COC(=O)C1=C(C)NC(=O)NC1c1cccs1 (stereo unspecified)	1%
80	Cc1ncsc1C(=O)N1CC(CNC(=O)C2CC2)C2(C1)CN(c1ccccc1)C2 (stereo unspecified)	-3%[70.6 µM]
81	COc1ccc(S(=O)(=O)NC[C@@H]2C=C(C)[C@H](CC(=O)NCc3ccc(C#N)cc3)C[C@H]2C(C)C)cc1	-9%
82	CN(CCc1cnn(C)c1)C(=O)c1coc(COc2cccc(C(F)(F)F)c2)n1	-2%
83	Cn1cc(-c2ccccc2)cc1C(=O)N1CCOCC1	-1%
84	CCn1c(CN(C)C)nnc1C1CCN(Cc2ccc(-n3ccnc3)cc2)CC1	0%
85	Fc1ccc2oc([C@H]3CCN(CC4CCCCC4)C3)nc2c1	2%[70.6 µM]
86	N[S+](=O)([O-])c1ccc2c(c1)OCCN(Cc1ccccc1Cl)C2	-9%[70.6 µM]
87	CN(C)C(=O)c1nc(-c2ccccc2)c2ccccn12	-1%[70.6 µM]
88	Cc1ccc(C)c(C(=O)Nc2ccc3c(N4CCCC4)ncnc3c2)c1	-2%
89	COc1ccc2c(c1)OCC(C(=O)N(C)Cc1nccn1Cc1ccccc1)C2 (stereo unspecified)	1%
90	COc1ccc(CCc2nc3nccc(-c4cccs4)n3n2)cc1	-12%
91	CCCN1CCC2(CCN(C(=O)c3ccc(Cl)cc3)CC2)Oc2ccccc21	11%
92	Cc1cc(OCCN2CCOCC2)c(C)c2c1CC[C@@H]([C@H](C)C(=O)NCc1cccnc1)C2	5%
93	O=C(Nc1ccc(F)c(Cl)c1)N1CCC(Oc2ncccc2C(=O)N2CCOCC2)C1 (stereo unspecified)	1%
94	O=C(COc1ccc(F)cc1)N1CCC(c2nc(CCOCC3CC3)no2)C1 (stereo unspecified)	1%
95	NC(=O)c1cc[nH]c1C1CCCN(S(=O)(=O)c2ccc3c(c2)CCC3)C1 (stereo unspecified)	?
96	CC(C)NC(=O)C1CCCN(c2nc3ncccc3o2)C1 (stereo unspecified)	24%[70.6 µM]
97	NCCc1cccc(CN2CCC(Oc3cccc(F)c3)CC2)c1	2%
98	Cc1nn(C)c(C)c1S(=O)(=O)N1CCCC(Cc2nncn2C(C)C)C1 (stereo unspecified)	9%
99	CC(=O)Nc1ccc(OCC(=O)NCc2ccccc2F)nc1	-1%
100	O=C(C1CC=CC1)N1C[C@@H](COCC2CC2)[C@H](c2ccncc2)C1	2%
101	CC(C)c1nnc(C2CN(C(=O)C3(c4ccccc4)CC3)CC23CCOCC3)o1 (stereo unspecified)	5%
102	CNS(=O)(=O)c1ccc(CN2CCCC3(C2)CN(C)C(=O)O3)cc1 (stereo unspecified)	4%
103	CN1CCN(c2nc3c(c(=O)[nH]2)CCN(CC2CCCCC2)CC3)CC1	-3%
104	CC(C)C(=O)Nc1ccc(C2(C(=O)N(C)C)CCC2)cc1	1%
105	N#Cc1ccc(CN2CCCC3(CNc4ccccc4[S+](=O)([O-])N3)C2)cc1 (stereo unspecified)	-6%
106	O=C(c1cc2ccccc2[nH]1)N1CCC(c2noc(C3CC3)n2)C1 (stereo unspecified)	?
107	CC1=C[C@@H](CNS(=O)(=O)c2ccccc2)[C@H](C(C)C)C[C@H]1CC(=O)NCCN(C)C	-1%
